Assay outcomes: PubChem BioAssay, Johns Hopkins Ion Channel Center
KCNQ2 inh: KCNQ2 channel blockers in CHO-K1 cells – cell-based, FluxOR thallium flux, B-score, primary screen (AID 2156); O88943; 20 min; stronger effect = lower value; only compounds with negative scores are shown here; some inactives read as strong as hits; B-score at 10 µM; hit rate 1.1% among 310,000;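 active = fluorescence ratio B-score at most minus 3 library SDs, with starting brightness B-score within 2 library SDs, cut at about -5.5 in these data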
Target sequence (O88943 whole entry, looked up): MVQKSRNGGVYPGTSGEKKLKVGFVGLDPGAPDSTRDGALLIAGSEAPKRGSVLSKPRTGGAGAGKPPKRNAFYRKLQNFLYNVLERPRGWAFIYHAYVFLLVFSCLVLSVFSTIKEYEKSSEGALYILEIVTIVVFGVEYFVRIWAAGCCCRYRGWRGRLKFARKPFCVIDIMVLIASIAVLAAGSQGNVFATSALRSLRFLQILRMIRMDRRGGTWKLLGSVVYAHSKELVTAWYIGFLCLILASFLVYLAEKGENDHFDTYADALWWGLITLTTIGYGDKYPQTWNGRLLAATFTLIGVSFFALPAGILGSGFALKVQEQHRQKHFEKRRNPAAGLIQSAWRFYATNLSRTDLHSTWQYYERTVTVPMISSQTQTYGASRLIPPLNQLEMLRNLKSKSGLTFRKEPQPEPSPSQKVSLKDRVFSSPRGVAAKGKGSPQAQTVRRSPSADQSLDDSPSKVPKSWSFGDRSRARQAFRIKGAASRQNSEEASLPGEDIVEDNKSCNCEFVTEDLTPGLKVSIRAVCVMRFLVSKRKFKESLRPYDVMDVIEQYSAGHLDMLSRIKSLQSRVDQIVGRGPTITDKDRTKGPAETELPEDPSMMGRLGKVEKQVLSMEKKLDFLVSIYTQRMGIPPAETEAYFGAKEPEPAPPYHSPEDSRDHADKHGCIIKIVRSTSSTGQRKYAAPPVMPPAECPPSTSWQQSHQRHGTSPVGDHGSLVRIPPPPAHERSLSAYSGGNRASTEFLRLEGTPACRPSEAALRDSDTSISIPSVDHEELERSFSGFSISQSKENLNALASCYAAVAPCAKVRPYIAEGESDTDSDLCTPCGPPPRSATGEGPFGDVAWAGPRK
KCNQ2 inh baseline: further read-out of KCNQ2 inh, marked with its call; B-score; measured here: initial fluorescence intensity artifact check;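 brightness before thallium and not channel activity; 0 = typical well and far values either way flag optical interference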
Active calls of the source: *; i = inactive. Not all compounds are listed, so the mix of outcomes need not match the whole.

No.	Compound	KCNQ2 inh	KCNQ2 inh baseline
1	Cc1nc2ccc(NC(=O)c3ccc(Cl)s3)cc2s1	i	-1.5
2	Cc1cccc(C(=O)N(CCc2ccccc2)Cc2ccccc2)c1[N+](=O)[O-]	i	-0.56
3	COc1ccc(OC(C)C(=O)Nc2cccnc2)cc1 (stereo not given)	i	0.38
4	C(=N\Nc1nncc2ccccc12)/c1ccccn1	i	-2.2
5	O=[N+]([O-])c1cc(CSC2=NCCN2)ccc1O	i	-1.4
6	COc1cc(OC)c(OC)cc1C=NCC1(c2ccccc2)CCCC1	i	1.1
7	O=C1C(NS(=O)(=O)c2ccccc2)=C(N2CCN(c3ccc(F)cc3)CC2)C(=O)c2ccccc21	i	0.19
8	CC(C)c1ccc(C(O)P(=O)(OC2CCCCC2)OC2CCCCC2)cc1 (stereo not given)	i	-2.6
9	CCCCn1nc(C(=O)NC2=NCCS2)c2ccccc2c1=O	i	-0.6
10	O=C(COc1ccccc1F)NCc1nc2ccccc2[nH]1	i	-0.49
11	CCOc1ccc(/C=C2\SC(N3CCc4ccccc4C3)=NC2=O)cc1	i	1.2
12	Cc1ccc(NC(=O)C(C)N2C(=O)c3ccccc3C2=O)nc1 (stereo not given)	i	1.8
13	O=c1[nH]c2ccsc2c(=O)n1-c1ccc(F)c(Cl)c1	i	0.03
14	CCOc1cccc(C2C(C#N)=C(N)Oc3cc(C)oc(=O)c32)c1OCC (stereo not given)	i	1.5
15	CCc1ccc(NC(=O)N(C2CCC(C)CC2)C2CCN(C(C)=O)CC2)cc1 (stereo not given)	i	-0.05
16	CC(C)C(=O)Nc1cccc(-c2cnc3ccccc3n2)c1	i	3.3
17	CCCn1nnnc1SCC(=O)NCc1ccc(OC)cc1	i	0.14
18	Cc1ccccc1OCC(=O)NNC(=O)CCc1ccccc1	i	-1.2
19	CCCCOc1ccc(C2/C(=C(/O)c3ccc4c(c3)CC(C)O4)C(=O)C(=O)N2CCCN2CCOCC2)cc1OC (stereo not given)	i	0.67
20	COc1ccccc1/C=C1\Oc2cc(OC(=O)N3CCOCC3)ccc2C1=O	i	-0.87
21	CC(=O)c1cccc(NS(=O)(=O)c2cc3c(cc2C)NC(=O)CO3)c1	i	1
22	CCOC(=O)C1CCN(Cc2cc(C(C)C)c(O)c(C(C)C)c2)CC1	i	-0.05
23	COC(=O)CN(c1ccccc1)S(=O)(=O)c1ccccc1	i	0.48
24	COc1ccc(NC(=S)Nc2ccccn2)cc1	i	0.4
25	Cc1ccccc1OCC(=O)NCCNC(=O)c1ccccn1	i	-1.7
26	NC(=O)/C(=N\O)c1ccccc1	i	2.1
27	CN1C(=O)CSC1=Nc1cccc(Cl)c1	i	-0.22
28	Nc1ncnc(NC2CCS(=O)(=O)C2)c1[N+](=O)[O-] (stereo not given)	i	0.94
29	CC(/C=C/c1ccccc1)=N/NC(=O)C(O)c1ccccc1 (stereo not given)	i	0.98
30	CCN(C(=O)Cn1cc(C(=O)C(=O)N2CCOCC2)c2ccccc21)c1ccccc1	i	1.4
31	CC(=O)c1cccc(OCC(O)CN2CCN(S(=O)(=O)c3c(F)cccc3F)CC2)c1 (stereo not given)	i	-0.9
32	CC(Cc1cccs1)NC(=O)NC1CCCCC1 (stereo not given)	i	-0.26
33	O=C(Nc1ccccc1C(=O)N1CCCCC1)c1ccccc1C(F)(F)F	i	-0.18
34	Cc1ccc(NC2CCCN(C(=O)CCc3cn[nH]c3)C2)cc1C (stereo not given)	i	-0.16
35	O=C(COc1ccc(Br)cc1)NCCCn1ccnc1	i	1.2
36	COc1ccccc1-c1cc(-c2ccc(O)cc2)nc(N)c1C#N	i	1.6
37	CSc1nc(O)c(C(c2cccc([N+](=O)[O-])c2)c2c(O)nc(SC)[nH]c2=O)c(=O)[nH]1	i	2
38	CCOc1ccc(S(=O)(=O)NC(C)(C)C)cc1-c1nc2c(C(C)(C)C)nn(C)c2c(=O)[nH]1	i	-1.9
39	COc1ccccc1CNC(=O)Cn1cccc1C(=O)c1ccccc1	i	0.81
40	Cc1cc(C)nc(NS(=O)(=O)c2ccc(N3C(=O)C4CCCCC4C3=O)cc2)n1 (stereo not given)	i	-1.1
41	CCOc1ccccc1N=c1oc2cc(O)ccc2cc1C(=O)NCC1CCCO1 (stereo not given)	i	3.2
42	O=C(Nc1nnc(-c2ccc(F)cc2)s1)c1c(F)cccc1Cl	i	0.14
43	Nc1nc(SCC(=O)N2CCCc3ccccc32)n(-c2ccccc2)n1	i	1.8
44	COc1ccc(Cl)cc1/C=C(\C#N)C(N)=O	i	0.47
45	O=C(Nc1ccc2c(c1)OCCO2)c1cc(-c2ccccc2)nc2ccccc12	i	-0.38
46	Cn1c(=O)[nH]c(=O)c2c1nc(N1CCN(Cc3ccccc3)CC1)n2CCCc1ccccc1	i	2
47	O=C(CC(CC(=O)c1ccc(Br)cc1)c1cccnc1)c1ccc(Br)cc1	i	-0.37
48	O=C(CN(CC1CCCO1)C(=O)CNS(=O)(=O)c1ccccc1)NCc1ccccc1 (stereo not given)	i	0.28
49	O=S(=O)(c1cccc(-c2nnc(SCc3nc4ccccc4s3)o2)c1)N1CCOCC1	i	-0.55
50	COC(=O)C1CCN(Cc2nnc(-c3ccccc3)o2)CC1	i	1.2
51	Cc1ccc(NC(=O)CN(C)C(=O)c2n[nH]c(=O)c3ccccc23)cc1	i	-0.59
52	O=C(CSC1=NCCN1)NC(c1ccccc1)c1ccccc1	-9.7*	-0.79*
53	COCc1cc(C)nc2sc(C(=O)Nc3ccccc3F)c(N)c12	i	0.01
54	CC(C)CC(NC(N)=O)C(=O)NCCc1ccc(Cl)cc1 (stereo not given)	i	0.39
55	COc1ccc(S(=O)(=O)N2CCC(C(=O)NCc3ccncc3)CC2)cc1OC	i	0.4
56	COc1cc(NC(=O)c2sc3ncn(CC(=O)N4CCCC(C)C4)c(=O)c3c2C)cc(OC)c1OC (stereo not given)	i	1.1

Other compounds follow.
No.	Compound	KCNQ2 inh	KCNQ2 inh baseline
57	CN(CCOc1ccc(Cl)cc1)CC(O)c1ccccc1 (stereo not given)	i	1.7
58	N#Cc1ccccc1CN1C(=O)NC2(CCCCCC2)C1=O	i	-1.7
59	CC(=O)Oc1ccc(/C(C)=N\N2CCN(Cc3ccc(Cl)cc3)CC2)cc1	i	1.5
60	Cc1cc(C(=O)COC(=O)CC2Sc3ccccc3NC2=O)c(C)n1-c1ccc2c(c1)OCO2 (stereo not given)	i	-0.14
61	CC(C)(C)n1ncc2c(=O)n(Cc3c(F)cccc3Cl)cnc21	i	0.62
62	COC(=O)COc1ccc(/C=C2/SC(=O)N(CC(=O)N3CCCC3)C2=O)cc1Br	i	0.04
63	CCc1ccc(Nc2n[n+](-c3ccccc3)c(-c3ccc(OCc4ccccc4)cc3)s2)cc1	i	-0.45
64	CCCCn1c2ccccc2c2nnc(SCCN3CCCCC3)nc21	i	1.8
65	CCOc1ccc(-c2nnc(Nc3ccc(OC)c(C(=O)N4CCCCC4)c3)c3ccccc23)cc1	i	-0.3
66	Cc1ccc(C)c(S(=O)(=O)Nc2ccc3[nH]c(=O)[nH]c3c2)c1	i	-0.93
67	COc1ccccc1C(C)NS(=O)(=O)c1cccs1 (stereo not given)	i	0.75
68	CCC(C)Sc1ccc([C@H]2N[C@@](CC(C)C)(C(=O)OC)[C@H]3C(=O)N(CC)C(=O)[C@@H]23)cc1 (stereo not given in full)	i	-0.05
69	Cc1cc(=O)oc2cc(OCC(=O)NCCc3c[nH]c4ccc(F)cc34)ccc12	i	0.09
70	NN/C(=C\[N+](=O)[O-])Nc1ccc(Cl)cc1	i	1.3
71	CC(=O)OC(C)[C@H]1CC[C@H]2[C@@H]3CC[C@H]4C[C@@H](OC(C)=O)CC[C@]4(C)C3=CC[C@]12C (stereo not given in full)	i	0.14
72	CCOCc1nnc(NC(=O)C2c3ccccc3Oc3ccccc32)s1	i	0.32

Along the list, from the results shown.
KCNQ2 inh for nos. 57–67 → i, i, i, i, i, i, i, i, i, i, i
KCNQ2 inh baseline for nos. 57–67 → 1.7, -1.7, 1.5, -0.14, 0.62, 0.04, -0.45, 1.8, -0.3, -0.93, 0.75

(continued)
No.	Compound	KCNQ2 inh	KCNQ2 inh baseline
73	CCc1ccc(CN2CCCC(C(=O)Nc3ccccc3-c3ccc(OC)cc3)C2)o1 (stereo not given)	-6.1*	-1.3*
74	CC(=O)c1cccc(NC(=S)N2CCCC2)c1	i	1.2
75	Cc1cccc(C(=O)NC(NCCc2ccccc2)C(Cl)(Cl)Cl)c1 (stereo not given)	i	0.35
76	Cc1ccc(S(=O)(=O)N2CCCC2CNC(=O)C(=O)Nc2ccccc2)cc1 (stereo not given)	i	-2.2
77	Cc1cc(C(F)(F)F)c2c(n1)sc1c(O)cc(=O)[nH]c12	i	-1
78	O=C(Nc1ccc(C2CC2(Cl)Cl)cc1)c1ccccc1Br (stereo not given)	i	-0.01
79	O=C(Cn1cc(C(F)(F)F)ccc1=O)N/N=C/c1ccc(Cl)c(Cl)c1	i	0.02
80	O=C(Cn1cnc2c(oc3ccccc32)c1=O)NCC1CCCO1 (stereo not given)	i	0.98

As entered above:
For KCNQ2 inh baseline, cpd 75 shows 0.35
For KCNQ2 inh baseline, cpd 73 shows -1.3*

More results follow:
No.	Compound	KCNQ2 inh	KCNQ2 inh baseline
81	COC(=O)[C@H](C)[C@@H]1C[C@@]1(C)[C@@H](NC(=O)OCc1ccccc1)c1ccccc1	i	0.16
82	Fc1ccc2c(c1)Sc1ccc(Cl)cc1CC2N1CCN(CCC2OCCO2)CC1 (stereo not given)	i	0.03
83	Cc1cccc(OCCCCCNCCO)c1	i	0.73
84	Cc1ccc2c(=O)cc(C(=O)NC3CCS(=O)(=O)C3)oc2c1C (stereo not given)	i	-0.85
85	CCCc1ncc(C(O)(c2ccccc2)c2ccc(C)cc2)n1C (stereo not given)	i	-0.42
86	COc1cccc(NC(=O)c2cccc(OC)c2OC)c1	i	0.08
87	Cc1ccc(CNC(=O)c2sc3ccc(S(=O)(=O)N4CCCCC4)cc3c2N)cc1	i	2.1
88	Cc1ncccc1C(=O)N1CCCC(C(=O)c2ccc3c4c(cccc24)CC3)C1 (stereo not given)	i	-0.55
89	COC(=O)c1c(C)[nH]c(C(=O)CSc2nnnn2-c2ccccc2)c1C	i	-1.8
90	Cc1cccc(-c2nnc(SCC(=O)N3c4ccccc4CCc4ccccc43)n2C)c1	i	-1.9
91	CN(C1CCCCC1)S(=O)(=O)c1ccc(NC(=O)Cn2nc(-c3ccc(F)cc3)ccc2=O)cc1	i	-0.06
92	COc1ccc2c(c1)Sc1ccccc1N2	i	0.05
93	O=C(CCc1ccccc1)N1CCCC(Nc2ccc(F)cc2)C1 (stereo not given)	i	0.36
94	CSC[C@@H]1NC(=S)N(c2ccc(C)cc2)C1=O	i	0.78
95	COc1ccc(CCNC(=O)c2cccc(C(=O)NCCc3ccc(OC)cc3)n2)cc1	i	-1.3
96	CC1CCCCN1C(=O)CN1C(=O)CSc2ccc(S(=O)(=O)N3CCOCC3)cc21 (stereo not given)	i	1

Exported in transposed form: entries from further up
95. COc1ccc(CCNC(=O)c2cccc(C(=O)NCCc3ccc(OC)cc3)n2)cc1
89. COC(=O)c1c(C)[nH]c(C(=O)CSc2nnnn2-c2ccccc2)c1C

| Compound | 95 | 89 |
| --- | --- | --- |
| KCNQ2 inh | i | i |
| KCNQ2 inh baseline | -1.3 | -1.8 |

Remaining list, next part:
No.	Compound	KCNQ2 inh	KCNQ2 inh baseline
97	Cc1cc(C)cc(Nc2ccc3nonc3c2[N+](=O)[O-])c1	i	-0.16
98	CCOc1cc(S(=O)(=O)NCc2ccc3c(c2)OCO3)c(C)cc1C	i	-0.01
99	Cc1ccc(-c2csc(NC(=O)c3ccc(C)o3)n2)cc1	i	0.51
100	Cc1cccc(/C=N/NC(=O)c2ccc(NC(=O)c3ccccc3Cl)cc2)n1	i	-1.5
101	COc1ccc(/C(N)=N/OC(=O)CCc2ccccc2)cc1OC	i	-0.07
102	COc1ccc(COC(=O)C2CC(=O)N(Cc3ccc(C)cc3)C2)cc1 (stereo not given)	i	-0.02
103	Cc1c(Cc2ccc3c(c2)OCO3)sc(NC(=O)c2ccc3ccccc3c2)c1C(N)=O	i	1.4
104	Cn1c(=O)c2sccc2n2c(CCCC(=O)NCc3cccnc3)nnc12	i	0.77

Single records, as listed above.
Results for NN/C(=C\[N+](=O)[O-])Nc1ccc(Cl)cc1 : KCNQ2 inh = i; KCNQ2 inh baseline = 1.3
Results for COc1cccc(NC(=O)c2cccc(OC)c2OC)c1 : KCNQ2 inh = i; KCNQ2 inh baseline = 0.08
Results for COc1ccc2c(c1)Sc1ccccc1N2 : KCNQ2 inh = i; KCNQ2 inh baseline = 0.05

Next section:
No.	Compound	KCNQ2 inh	KCNQ2 inh baseline
105	O=C(Nc1ccccc1-c1ccccc1)C12CC3CC(CC(C3)C1)C2	i	-1.1
106	COCCNC(=O)/C(C#N)=C/c1cc(C)n(-c2ccc(C)cc2)c1C	i	-0.71
107	COC/C=C/C1=CC2=CC(=O)C(C)(OC(=O)c3cnc4ccccc4n3)C(=O)C2=CN1CCCOC(C)C (stereo not given)	i	-0.14
108	COc1cccc(N2CCN(C(=O)C3CCN(S(=O)(=O)c4ccc5c(c4)CC(C)N5C(C)=O)CC3)CC2)c1 (stereo not given)	i	-1.4
109	Cc1ccc[n+](CC(=O)Nc2ccc(Cl)c([N+](=O)[O-])c2)c1	i	0.88
110	O=C(N/N=C/c1cccc(OC(=O)c2ccc([N+](=O)[O-])cc2)c1)c1cccnc1	i	0.01
111	Cc1[nH]n(-c2ncc(-c3ccccc3)s2)c(=O)c1C(c1ccc(Cl)cc1)C(C#N)C#N (stereo not given)	-7.2*	-0.21*
112	O=C(COC(=O)c1ccc(N2CCCC2=O)cc1)NCc1ccco1	i	0.47
113	N/C(=N\OC(=O)C(c1ccccc1)c1ccccc1)c1ccccn1	i	-1.4
